Screening results (PubChem)
Hsp90 Hop PPI – changes Hsp90-Hop TPR2A binding signal, up or down; AlphaScreen TPR2A-His6 binding biotin-Hsp90 C-terminal peptide; Potency, µM (titrated, usually from 57 µM), for inactives: at the top dose activity change, negative = inhibition; actives 0.44% (n = 71,000); AID 595; active means well fitted curve in either direction with a large enough effect; inconclusive means small, poorly fitted or top-dose-only effect, or another doubt; further: potency means the concentration at half of the fitted maximal effect; on the % scale 0 is the no-effect control and ±100 the full control effect; many of its hits are not listed in these tables
ALOX15 inhib – 15-hLO (ALOX15) enzyme inhibition; Potency, µM (titrated, usually from 57.1 µM), inactives show top-dose activity change, negative = inhibition, usual class: inhibitors; purified 15hLO-1, xylenol orange hydroperoxide absorbance; AID 887; actives 1.4% (n = 74,000); further: potency means the concentration at half of the fitted maximal effect; on the % scale 0 is the no-effect control and ±100 the full control effect; nearly all actives have a fitted effect of over 55% in size
Target sequence (P16050 whole entry, looked up): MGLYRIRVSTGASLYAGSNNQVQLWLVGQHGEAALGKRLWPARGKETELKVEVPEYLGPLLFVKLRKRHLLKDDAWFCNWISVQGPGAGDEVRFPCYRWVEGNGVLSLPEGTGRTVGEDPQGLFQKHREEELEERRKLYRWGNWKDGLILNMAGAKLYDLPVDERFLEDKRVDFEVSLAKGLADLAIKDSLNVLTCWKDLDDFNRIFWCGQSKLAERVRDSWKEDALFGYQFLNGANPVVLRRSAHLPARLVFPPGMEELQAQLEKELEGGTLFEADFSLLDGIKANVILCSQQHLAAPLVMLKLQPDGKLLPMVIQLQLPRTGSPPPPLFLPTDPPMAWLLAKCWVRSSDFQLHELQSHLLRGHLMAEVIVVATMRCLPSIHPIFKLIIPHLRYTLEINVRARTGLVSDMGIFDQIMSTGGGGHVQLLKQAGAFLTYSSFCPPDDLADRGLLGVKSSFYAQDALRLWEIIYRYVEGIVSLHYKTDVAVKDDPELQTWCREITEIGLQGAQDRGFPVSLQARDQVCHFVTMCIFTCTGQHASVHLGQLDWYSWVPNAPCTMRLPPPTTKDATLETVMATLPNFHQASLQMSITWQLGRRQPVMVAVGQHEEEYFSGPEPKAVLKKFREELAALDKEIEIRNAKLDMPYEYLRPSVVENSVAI
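40 nM 15hLO-1 + cpd, 15 min RT; start w/ 50 uM AA (final), 6 min RT; stop/detect w/ 200 uM XO + 300 uM Fe(II) in 50 mM H2SO4, 30 min; A573/A405. Buffer 25 mM Hepes pH 7.5, 0.01% Triton X-100. No-enzyme wells as negative control.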
Ub-GFP proteasome – proteasome inhibitors stabilizing ubiquitin-GFP reporter; Ubiquitin-GFP reporter cells, proteasome inhibition, GFP fluorescence; response scale: untreated = 0%, 10 µM MG-132 = 100%; Potency, µM (highest dose often 45.9 µM), without a hit: at the top dose activation (GFP accumulation), actives largely listed as activators; 67,000 tested, under 10 active; AID 526; active means well fitted activation curve with a large enough effect, not every such curve was filed as active; inconclusive means small, poorly fitted or top-dose-only effect, or another doubt; inactive means no such curve, though single readings can be large or run the other way; further: potency means the concentration at half of the fitted maximal effect
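Proteasome blockade was scored as a rise in GFP-expressing U2OS cells carrying a ubiquitin(G76V)-GFP construct, imaged after 4 hr compound treatment at 37 °C across a 46 uM–2.9 nM series.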
Epigenetic mod – derepresses silenced GFP locus in mouse C127i cells; Potency, µM (series often up to 46.1 µM), for inactives: at the top dose GFP derepression (activation); mouse C127i GFP locus derepression, cytometry, 30 h; AID 597; actives 0.09% (n = 68,000); further: % of control where 0% means no effect
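Derepression screen: silenced CMV-GFP reporter in murine C127i cells, 30 h compound incubation at 37 C, washed cells imaged by laser-scanning cytometer to enumerate GFP-expressing objects of 20 to 120 um.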
DNA Pol III inh – DNA polymerase III holoenzyme inhibition | reconstituted DNA polymerase III holoenzyme replication, biochemical | Potency, µM (top dose mostly 57.1 µM), for the others: at the highest dose activity change, negative = inhibition | actives 0.25% (n = 71,000); further: potency means the concentration at half of the fitted maximal effect; on the % scale 0 is the no-effect control and ±100 the full control effect
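Reconstituted *E. coli* holoenzyme (0.35 nM Pol III, 1 nM beta, 154 nM SSB, 2 nM primase) was preincubated with compound for 15 min at RT. Synthesis on 1.4 nM ssM13Gori ran 35 min, then was stopped with PicoGreen/EDTA and read as dsDNA fluorescence.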
Rhodamine autofl – rhodamine region autofluorescence; AID 594; max dye-equivalent concentration, M; Rhodamine-region fluorescence, 547/598 nm, Tris buffer; hits give high values; actives 0.05% (n = 59,000); in the data active means max dye-equivalent concentration above about 11 nM; inconclusive means between about 1.1 nM and that limit
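A six-point rhodamine series on each plate calibrates the signal. Compounds sit in 100 mM Tris (pH 8.0) for 15 min at ambient temperature before imaging through 547 nm/598 nm filters.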
TexasRed autofl – Texas Red region autofluorescence | Compound fluorescence, Texas Red channel, 547/618 nm; hits give high values | max dye-equivalent concentration, M | actives 0.06% (n = 59,000) | AID 587; in the data active means max dye-equivalent concentration above about 10 nM; inconclusive means between about 1.1 nM and that limit
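Spectral interference profiling: each compound concentration's relative fluorescence, read with a 547 nm excitation and 618 nm emission filter pair, was normalized to a per-plate Texas Red standard curve.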
Fluorescein fluor – compound fluoresces in the fluorescein spectral region; AID 593; actives 0.91% (n = 59,000); Compound autofluorescence, 480/540 nm, fluorescein-equivalent; hits give high values; max fluorescein-equivalent concentration, M; in the data active means max fluorescein-equivalent concentration above about 10 nM; inconclusive means between about 1.1 nM and that limit
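Autofluorescence profiling; 100 mM Tris, pH 8.0; incubation 15 min at RT; ex/em 480/540 nm; result as fluorescein-equivalent concentration.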
HBB splice mod – alters splicing of the hemoglobin beta chain. Potency, µM (series often up to 46.1 µM), for inactives: at the highest dose activation, actives largely listed as activators. HBB splicing reporter cell assay, activation; EGFP reporter with mutant IVS2-654 intron; response scale: normalised to 500 nM splice-correcting PNA. actives 0.06% (n = 65,000). AID 925; further: potency means the concentration at half of the fitted maximal effect; 0% is about no effect
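Compounds were applied for 2 days to HeLa EGFP-654 cells, 500/well in Optimem with 2% FCS. The reporter's EGFP is disrupted by mis-splicing of beta-globin intron IVS2-654. Readout: summed well GFP fluorescence from 488 nm laser scanning; reference was 500 nM antisense […] 654 PNA.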
The depositor's hits bear a star; i = inactive; ? = inconclusive; / = no result given; [ ] = dose if it differs, or a comment. Unless noted, the call rests on the fitted dose curve; in most records, active means well fitted curve in the direction sought with a large enough effect; inconclusive means small, poorly fitted or top-dose-only effect, or another doubt; inactive means no such curve, though single readings can be large; an effect the other way counts as inactive or inconclusive.

Start of the listing, in advance, 6 compounds:
SMILES | Hsp90 Hop PPI | ALOX15 inhib | Ub-GFP proteasome | Epigenetic mod | DNA Pol III inh | Rhodamine autofl | TexasRed autofl | Fluorescein fluor | HBB splice mod
O=C(NCc1ccco1)c1ccccc1NS(=O)(=O)c1cccs1 | 0% | -4% | -3% | 3% | -2% | i | i | i | 6.8%
Cc1ccc2nc(NC(=O)CSc3nc4c(c(=O)n3C)SC(C)C4)sc2c1 (stereo not drawn) | -2% | -23% | -8% | -1% | -3% | i | i | i | -1.7%
CCCN(Cc1cc2ccc(C)cc2[nH]c1=O)C(=O)c1ccccn1 | -6% | -24% | 0% | 0% | -2% | i | i | i | 3.2%[57.5 µM]
CCOC(=O)c1c(-c2ccco2)csc1N | -10% | ? | -1% | 4% | -3% | i | i | ? | -0.5%[57.5 µM]
Cn1nnnc1Sc1nc(-c2cccnc2)nc2ccccc12 | -1% | 5% | 2% | 1% | 0% | i | ? | i | -0.2%[57.5 µM]
Cc1c(NC(=O)CSc2ccc3c(c2)OCCO3)c(=O)n(-c2ccccc2)n1C | -6% | -5% | -3% | 0% | -2% | i | ? | ? | -1.2%

This part in full, from the first entry:
SMILES | Hsp90 Hop PPI | ALOX15 inhib | Ub-GFP proteasome | Epigenetic mod | DNA Pol III inh | Rhodamine autofl | TexasRed autofl | Fluorescein fluor | HBB splice mod
O=C(NCc1ccco1)c1ccccc1NS(=O)(=O)c1cccs1 | 0% | -4% | -3% | 3% | -2% | i | i | i | 6.8%
Cc1ccc2nc(NC(=O)CSc3nc4c(c(=O)n3C)SC(C)C4)sc2c1 (stereo not drawn) | -2% | -23% | -8% | -1% | -3% | i | i | i | -1.7%
CCCN(Cc1cc2ccc(C)cc2[nH]c1=O)C(=O)c1ccccn1 | -6% | -24% | 0% | 0% | -2% | i | i | i | 3.2%[57.5 µM]
CCOC(=O)c1c(-c2ccco2)csc1N | -10% | ? | -1% | 4% | -3% | i | i | ? | -0.5%[57.5 µM]
Cn1nnnc1Sc1nc(-c2cccnc2)nc2ccccc12 | -1% | 5% | 2% | 1% | 0% | i | ? | i | -0.2%[57.5 µM]
Cc1c(NC(=O)CSc2ccc3c(c2)OCCO3)c(=O)n(-c2ccccc2)n1C | -6% | -5% | -3% | 0% | -2% | i | ? | ? | -1.2%
O=C(c1ccncc1)N1CCN(C(=O)c2cccs2)CC1 | -5% | 4% | 5% | 10% | 4% | i | i | i | 1.5%
CCOC(=O)c1c(C)n(C(=O)c2ccco2)c(=O)n1C(=O)c1ccco1 | -18% | 4% | 1% | 2% | -4% | i | i | i | 0.2%[57.5 µM]
CC(C)CCNC(=O)COc1ccc2c3c(c(=O)oc2c1)CCC3 | -7% | -2% | 2% | 3% | -2% | i | ? | ? | -0.8%
COC(=O)c1c(NC(=O)Cc2cccs2)sc2c1CCCC2 | 23% | -26% | -3% | -1% | -10% | i | i | ? | /
CCn1nc(C)c(NC(=O)CCCSc2nc(-c3ccco3)cc(C(F)(F)F)n2)c1C | -3% | 3% | 10% | 1% | 5% | i | i | i | -0.2%[57.5 µM]
CCCCC(=O)Nc1cccc(-c2nnc(-c3ccccc3)o2)c1 | 6% | -14% | -2% | 0% | 6% | i | i | ? | -0.1%
CC1(C)CC(=O)c2cc(OCC(=O)NCCN3CCCc4ccccc43)ccc2O1 | -4% | 1% | 3% | 0% | 7% | i | i | i | -0.2%
COc1ccc(CNc2nc(-c3cccc(C#N)c3)nc3ccccc23)c(OC)c1 | 1% | 7% | -3% | 5%[9.22 µM] | 14% | i | i | i | 0.6%
COc1ccc(N2C(=O)C(Cl)=C(Nc3c(C)n(C)n(-c4ccccc4)c3=O)C2=O)cc1 | -7% | -29% | 12% | -3% | -9% | i | i | i | -0.5%
COC(=O)c1cc2occc2n1CC(=O)N(C)C1CCCCC1 | -6% | 0% | 6% | -2% | -3% | i | i | i | -0.5%
COc1ccccc1-n1c(SCC(=O)Nc2nnc(C)s2)nc2c(c1=O)SCC2 | -2% | -9% | -5% | -1% | 0% | i | i | i | 1.8%
COC(=O)Cc1ccc(NC(=O)c2ccc(Br)o2)cc1 | -3% | 1% | 2% | 3% | -2% | i | i | i | 3.1%
COc1ccc(OC)c(NS(=O)(=O)c2ccc3c(c2)n(C)c(=O)n3C)c1 | -2% | -3% | 1% | 0% | 0% | i | i | i | -1.6%
O=c1c(-c2ccc(F)cc2)nc2cncnc2n1Cc1ccc(F)cc1 | 1% | 7% | 1% | 0%[9.22 µM] | -8% | i | i | i | -0.1%
CN(C)c1ncc2nc(-c3ccccc3)c(=O)n(Cc3ccc(F)cc3)c2n1 | 29% | -11% | 12% | 5%[9.22 µM] | -11% | i | i | ? | 3.1%
CC1CCc2nc(NC(=O)c3ccco3)sc2C1 (stereo not drawn) | -6% | -5% | 0% | 4% | -5% | i | ? | i | 0.2%
COc1ccc(CNC(=O)C2CCCN2S(=O)(=O)c2ccc(C)cc2)cc1 (stereo not drawn) | -4% | 7% | 3% | 0% | -8% | i | i | ? | 0.0%
COc1cc2cc(C(=O)O)n(C)c2c(OC)c1OC | 0% | -3% | 5% | -2% | -2% | i | i | i | 0.9%
O=C1NCCCC2c3c(cc(Br)c(O)c3Br)OC12N1CCOCC1 (stereo not drawn) | -7% | -13% | 6% | 0% | -6% | i | ? | i | 0.9%[1.84 µM]
NCCCCC(NC(CCc1ccccc1)C(=O)O)C(=O)N1CCCC1C(=O)O (stereo not drawn) | / | -1% | / | / | / | / | / | / | /
CCNc1ncc2nc(-c3cc(F)cc(F)c3)c(=O)n(CCOC)c2n1 | 0% | 5% | 13% | 5%[9.22 µM] | -7% | i | i | i | 0.6%
CCc1nnc2n1N=C(c1ccc(-c3cc(Cl)ccc3Cl)o1)CS2 | -8% | -6% | 2% | -2% | -13% | i | i | ? | -0.3%
Cc1cc(NC(=O)c2cc(C(C)C)on2)no1 | -11% | 5% | 10% | 2% | -6% | i | i | i | -1.0%
CN(Cc1ccco1)c1cc(-c2ccoc2)ncn1 | -8% | ? | -6% | 3%[9.22 µM] | -8% | i | i | ? | -0.1%
CCOC(=O)c1ccc(COC(=O)c2ccc(-c3nnc(-c4ccccc4)o3)cc2)o1 | 3% | -5% | 1% | -2% | -4% | i | i | i | -0.8%
Cc1ccc(S(=O)(=O)N2CCCC2C(=O)OCc2nc3ccccc3s2)cc1 (stereo not drawn) | 5% | 0% | 2% | 0% | 0% | i | i | i | -1.1%
CC(C)OC(=O)c1cc(=O)[nH]c2ccccc12 | 2% | -13% | -4% | -1% | -7% | i | i | i | /
Cc1onc(-c2ccccc2Cl)c1C(=O)Nc1sc2c(c1C#N)CCC2 | 4% | ? | -5% | 0% | -4% | i | ? | i | 0.8%[57.5 µM]
COC(=O)[C@@H]1[C@@H]2C[C@H]3c4[nH]c5ccccc5c4CCN3C[C@@H]2CC[C@@H]1O | -4%[11 µM] | -1%[11.4 µM] | -3%[9.17 µM] | 2%[9.22 µM] | -12%[11.4 µM] | i | i | ? | 2.2%[9.22 µM]
CCC(=O)Nc1cccc(NC(=O)c2ccc3c(c2)OCCO3)c1 | 0% | 5% | 2% | -2% | -4% | i | i | i | 0.3%[57.5 µM]
Cc1ccc(Nc2ncccc2C(=O)O)cc1C | 0% | 1% | 0% | -1% | -5% | i | i | i | /
CS(=O)(=O)Nc1ccccc1C(=O)Nc1cccc(Cl)c1 | -2% | -11% | 0% | 2% | -4% | i | i | i | -0.9%
CC(=O)NCCNc1ncnc2ccc(-c3ccc(C(=O)N(C)C)cc3)cc12 | -2% | 3% | -2% | 5%[9.22 µM] | -5% | i | i | ? | -0.4%
COc1cccc(Cn2c(=O)cnc3cnc(Oc4cccc(Cl)c4)nc32)c1 | 1% | -14% | -1% | 2%[9.22 µM] | -14% | i | i | i | -0.6%
CCc1nnc(NC(=O)C2CCCN2S(=O)(=O)c2ccc(C)cc2)s1 (stereo not drawn) | 0% | -19% | -1% | -1% | -6% | i | i | ? | -0.1%[57.5 µM]
Cc1ccc(-c2nnc3sc(CCc4ccccc4)nn23)cc1 | -1% | -9% | -3% | 0% | -3% | i | i | i | -0.7%
CC1CCc2nc(NC(=O)C3CCCO3)sc2C1 (stereo not drawn) | -2% | -16% | -4% | 3% | -2% | i | i | i | -0.6%
CCc1nc2oc3ccccc3c(=O)c2c(=O)n1-c1ccccc1 | 0% | -1% | 7% | 0% | 0% | i | i | i | 0.6%
CCSc1ccccc1C(=O)N1CCN(Cc2ccc3c(c2)OCO3)CC1 | -3% | -8% | -4% | 0% | -5% | i | ? | ? | -0.6%
COc1ccc(S(=O)(=O)n2nc(OC(=O)c3ccco3)cc2N)cc1 | 0% | -3% | 7% | 0% | -13% | i | i | i | /
CCSc1ccccc1C(=O)NCc1ccc(S(N)(=O)=O)cc1 | -4% | ? | -3% | 3% | -3% | i | ? | i | -0.3%
COc1ccc(OC)c(NC(=O)NC2(C(F)(F)F)Oc3ccccc3O2)c1 | -5% | -14% | 0% | 0% | -6% | i | i | i | -1.3%
O=S(=O)(c1ccccc1)N1CCN(c2cc(-c3ccccc3)nc3ncnn23)CC1 | 3% | 1% | 0% | 10% | -4% | i | i | i | /
CCOc1cc(C2/C(=C(\O)c3cc(C)ccc3C)C(=O)C(=O)N2CCN(C)C)ccc1O (stereo not drawn) | -3% | -8% | -1% | 0% | -4% | i | i | i | /
O=C(CSCc1ccco1)c1cccs1 | -7% | -13% | 2% | -1% | -7% | i | i | i | 0.0%[57.5 µM]
COc1cc(C(=S)N2CCCC2)ccc1O | -1% | -23% | / | 0% | -2% | i | ? | i | -1.0%[0.369 µM]
N#Cc1ccccc1-c1ccc2ncnc(NCc3cccnc3)c2c1 | -4% | -13% | 1% | -5%[9.22 µM] | -7% | i | i | ? | -2.1%

The list is partial. The share of hits here may be higher or lower than overall.
